Bioassay records (PubChem)
2A firefly: FMDV 2A StopGo reporter, firefly signal | HEK cells with a luciferase reporter of 2A StopGo recoding | Potency, µM (titrated, usually from 57.5 µM), without a hit: at the highest dose signal change, negative = less light | 120,000 compounds, 0.23% hits | AID 1745856; active = well fitted falling curve with a large enough effect; inconclusive = small, poorly fitted or top-dose-only effect; inactive = no such curve, though single readings can be large or run the other way; note: nearly all actives have a fitted effect of over 60% in size; overnight with compound
2A Renilla: lowers the Renilla signal of an FMDV 2A StopGo reporter; HEK cells with a luciferase reporter of 2A StopGo recoding; Potency, µM (doses to about 57.5 µM), without a hit: at the top dose signal change, negative = less light; 120,000 compounds, 0.32% hits; AID 1745857; active means well fitted falling curve with a large enough effect; inconclusive means small, poorly fitted or top-dose-only effect; inactive means no such curve, though single readings can be large or run the other way; note: nearly all actives have a fitted effect of over 55% in size; overnight with compound
An asterisk follows results filed as active; [ ] = dose if it differs, or a comment. % is set by controls: 0 for no effect and ±100 for the full control effect; potency is the fitted concentration of half-maximal effect. This is a subset. The share of hits here may be higher or lower than overall.

Screening Cc1ccc2sc(N(Cc3cccnc3)C(=O)c3ccc(S(=O)(=O)N(C)C)cc3)nc2c1C returned 2A firefly -29% and 2A Renilla -27%.
For c1ccc2[nH]c(-c3cscn3)nc2c1 the results were 2A firefly -12%[11.5 µM] and 2A Renilla 2%.
Screening CN(C)CCNC(=O)CN1C(=O)COc2ccc(S(=O)(=O)N3CCCC3)cc21 returned 2A firefly -18% and 2A Renilla -8%.
For COc1ccc(-n2nnnc2C2CCN(S(=O)(=O)c3ccc(F)cc3)CC2)cc1 the results were 2A firefly -9% and 2A Renilla -10%.
`O=C(O)c1ccccc1SCc1ccc(Br)cc1` gave 2A firefly 0% and 2A Renilla 9%.
CCc1ccc(CNCCc2ccc(OC)cc2)cc1 was read as 2A firefly 16% and 2A Renilla 9%.
Screening CCN(CC)c1ccc(NC(=O)CN2C(=O)c3cccnc3Oc3ccc(Cl)cc32)c(C)c1 returned 2A firefly 144%[activator] and 2A Renilla 145%[activator].
COc1ccc(OC)c(CNC(=O)C2CCN(S(=O)(=O)c3ccc4[nH]c(=O)oc4c3)CC2)c1 was read as 2A firefly -17% and 2A Renilla 64%[activator].
CN(C(=O)CSc1nnc(-c2ccccc2)o1)C1(c2ccccc2Cl)CCCCC1=O (centres undefined) was read as 2A firefly 0% and 2A Renilla 43%[activator].
COc1ccc(F)cc1C(=O)/C=C/c1cccc(C#N)c1 was read as 2A firefly 3.5µM* and 2A Renilla inconclusive.
Screening Cc1ccc(-c2nnc(SC3=CS(=O)(=O)c4ccccc43)o2)cc1 returned 2A firefly 0% and 2A Renilla -5%.
For Clc1cccc(CNc2cc(-c3ccccc3)nc3nncn23)c1 the results were 2A firefly -12% and 2A Renilla -15%.
For CC(C)CC(=O)NCC1CC2c3ccccc3C1c1ccccc12 (centres undefined) the results were 2A firefly 14% and 2A Renilla 21%.
For CCCOc1ccc(/C=C/C(=O)Nc2cc(C(C)(C)C)ccc2OC)cc1OC the results were 2A firefly 22% and 2A Renilla -12%.
Screening COc1ccc(CN(C)c2nn3c(=O)cc(C)nc3s2)cc1 returned 2A firefly 23% and 2A Renilla -4%.
CCOC(=O)c1cccc(NC(=O)CCSCCc2ccccn2)c1 was read as 2A firefly -5% and 2A Renilla 0%.
CC(C(=O)Nc1ccc2c(c1)OCO2)n1cnc2c1c(=O)n(C)c(=O)n2C (centres undefined) was read as 2A firefly 49%[activator] and 2A Renilla -2%.
Screening CCCNC(=O)Cn1ccc2cc(S(=O)(=O)N3CCCCC3)ccc21 returned 2A firefly 3% and 2A Renilla 46%[activator].
For Cc1nnc(SCc2c(C(=O)NC3CC3)oc3ccccc23)s1 the results were 2A firefly 31% and 2A Renilla 15%.
Screening Cc1ccc(NC(=O)C(C)n2nnc3sc4c(c3c2=O)CCCC4)cc1Cl (centres undefined) returned 2A firefly -23% and 2A Renilla 3%.
CC1CCN(S(=O)(=O)c2ccc3c(ccc(=O)n3CC(=O)N3CCC4(CC3)OCCO4)c2)CC1 was read as 2A firefly -9% and 2A Renilla 5%.
For O=C(NC1CC1)C(=O)N1CCN(C(=O)c2cc3ccccc3[nH]2)CC1 the results were 2A firefly 3% and 2A Renilla -3%.
Screening O=C(Nc1ccc2c(c1)OCCO2)c1ccc(CN2CCOCC2)cc1 returned 2A firefly 132%[activator] and 2A Renilla -14%.
For Ic1ccc(SN(Cc2ccco2)Sc2ccc(I)cc2)cc1 the results were 2A firefly -10% and 2A Renilla 0%.
For Cc1ccc(N2CC(NC(=O)c3ccc(S(=O)(=O)N4CCCC4)cc3)CC2=O)cc1C (centres undefined) the results were 2A firefly -27% and 2A Renilla -4%.
Screening FC(F)Sc1ccc(NC(=S)NCCCc2ccccc2)cc1 returned 2A firefly inconclusive and 2A Renilla inconclusive.
Cc1c(C2=CCN(S(=O)(=O)c3ccc(Cl)cc3)CC2)c2ccccc2n1CC(=O)N1CCCC1 was read as 2A firefly 139%[activator] and 2A Renilla 33%[activator].
Screening COc1ccccc1CNC(=O)CN(C)c1nn2c(=O)cc(C)nc2s1 returned 2A firefly -8% and 2A Renilla -14%.
Screening COc1ccccc1N1CCN(c2nccnc2SCC(=O)Nc2cc(Cl)ccc2C)CC1 returned 2A firefly 12% and 2A Renilla 8%.
COc1cccc(COc2ccc3c(C)cc(=O)oc3c2)c1 was read as 2A firefly 191%[activator] and 2A Renilla 10%.
For O=C(NCCc1cccnc1)c1ccc2c(c1)CCC2 the results were 2A firefly 124%[activator] and 2A Renilla 2%.
`O=C(Cn1c(=O)n(Cc2ccc3c(c2)OCO3)c(=O)c2oc3ccccc3c21)Nc1ccc(F)cc1` gave 2A firefly -12% and 2A Renilla 14%.
`CCOC(=O)CSc1nc2sc3c(c2c(=O)n1CC)CCCC3` gave 2A firefly inconclusive and 2A Renilla -15%.
Screening COc1ccc(OC)c(/C=C2\Oc3cc(OC(=O)c4ccc(C(C)(C)C)cc4)ccc3C2=O)c1 returned 2A firefly 6% and 2A Renilla 5%.
Screening CN(C)S(=O)(=O)c1cccc(C(=O)NCC2COc3ccccc3O2)c1 (centres undefined) returned 2A firefly 132%[activator] and 2A Renilla 66%[activator].
For CCCC(=O)NCCc1cccc(F)c1 the results were 2A firefly 22% and 2A Renilla -4%.
`COc1ccc(OC(=O)c2nc(SCc3ccccc3C)ncc2Cl)cc1` gave 2A firefly -6% and 2A Renilla -8%.
For Cc1ccc(C)c(NC(=O)CCc2ncc(-c3ccc(F)cc3F)o2)c1 the results were 2A firefly 0% and 2A Renilla -2%.
CCCN(C(=O)c1cn(CC(C)C)c(=O)c2cc(OC)c(OC)cc12)c1cccc(C)c1 was read as 2A firefly -25% and 2A Renilla 20%.
`CCCn1nc(C(=O)OCC(=O)Nc2ccc(Cl)c(C(F)(F)F)c2)c2ccccc2c1=O` gave 2A firefly 3% and 2A Renilla -6%.
`N#C/C(=C\c1c2ccccc2cc2ccccc12)C(=O)NCCc1ccccc1` gave 2A firefly -8% and 2A Renilla 33%[activator].
For COc1cccc(CNC(=O)CC2CCN(C(=O)c3[nH]c(C)cc3C)CC2)c1 the results were 2A firefly -7% and 2A Renilla 0%.
CCOc1ccccc1OCCN was read as 2A firefly 13% and 2A Renilla 6%[1.06 µM].
For CN(CC(=O)Nc1cccc(F)c1)C(=O)CCc1ncc(-c2ccccc2Cl)o1 the results were 2A firefly 126%[activator] and 2A Renilla -1%.
O=C(Nc1ccccc1OC(F)F)c1ccc2ccccc2n1 was read as 2A firefly 216%[activator] and 2A Renilla 4%.
`c1ccc(OCc2ccc(CCCN3CCOCC3)cc2)cc1` gave 2A firefly 20% and 2A Renilla 9%.
Screening O=C(Cc1ccc(-c2ccccc2)cc1)NCCS(=O)(=O)N1CCN(c2cccc(Cl)c2)CC1 returned 2A firefly -20% and 2A Renilla -11%.
For Cc1ccc(C)c(NC(=O)c2cc(S(=O)(=O)NCCC3=CCCCC3)ccc2F)c1 the results were 2A firefly inconclusive and 2A Renilla 59%[activator].
`CCOc1ccc(CNC(=O)c2ccc3nc(CC)c(CC)nc3c2)cc1` gave 2A firefly 25% and 2A Renilla 32%[activator].
Screening CCCOc1ccc(CNC(=O)Cn2cc3c(n2)-c2c(oc(C(=O)N4CCOCC4)c2C)CC3)cc1 returned 2A firefly -11% and 2A Renilla 7%.
O=C(CCNc1cccc(Br)c1)c1cc2ccccc2o1 was read as 2A firefly 11% and 2A Renilla 3%.
For CCn1cc(C(=O)NCc2ccccc2)c(=O)c2cc(S(=O)(=O)N3CCc4ccccc4C3)ccc21 the results were 2A firefly -30% and 2A Renilla 8%.
CCOC(=O)Cn1c(=O)n(C2CCCCC2)c2nc(-c3cccc(C)c3)nc(C(N)=O)c21 was read as 2A firefly 0% and 2A Renilla 4%.
For Cn1c(=O)[nH]c(=O)c2c1nc(N1CCNCC1)n2CCCc1ccccc1 the results were 2A firefly 9% and 2A Renilla -3%.
`CCOC(=O)c1cnc2nc(NCc3ccc(OCC)cc3)[nH]n2c1=O` gave 2A firefly -13% and 2A Renilla -3%.
For COc1ccc(-c2nc(CS(=O)(=O)CC(=O)NCc3ccccc3OC)c(C)o2)cc1 the results were 2A firefly 10% and 2A Renilla 19%.
Screening COc1cc(CNC(=O)c2ccc3c(c2)NC(=O)CS3)ccc1OCc1ccccc1 returned 2A firefly 95%[activator] and 2A Renilla 29%.
For CCOc1ccc(CCC2CCN(C(=O)Nc3ccccc3)CC2)cc1 the results were 2A firefly -5% and 2A Renilla inconclusive.
For O=C(CCc1c[nH]c2ccccc12)NCc1ccc(F)cc1 the results were 2A firefly -7% and 2A Renilla -6%.
`COc1ccc(-c2nc(CSCC(=O)NC3CCCCCC3)c(C)o2)cc1OC` gave 2A firefly 14µM* and 2A Renilla inconclusive.
For CC(C)(C)c1ccc(OCC(=O)Nc2onc3c2CCCC3)cc1 the results were 2A firefly 0% and 2A Renilla -8%.
For CCOc1ccc(CCNC(=O)c2nnc(Cc3ccc(Cl)cc3Cl)o2)cc1OCC the results were 2A firefly -6% and 2A Renilla -10%.
CCn1c(CC(=O)Nc2ccc(F)cc2)nnc1SCC(=O)Nc1ccc2ccccc2c1 was read as 2A firefly 25% and 2A Renilla -7%.
For COc1nc2cc(C)c(C)cc2nc1C(=O)Nc1cc(C)cc(C)c1 the results were 2A firefly 7% and 2A Renilla -4%.
For Cc1c(C)c2ccc(OCC(=O)NCc3ccncc3)cc2oc1=O the results were 2A firefly 18% and 2A Renilla 13%.
For CCOc1ccc(C(=O)Nc2ccc3nc(SCC(=O)N(C)c4ccccc4)sc3c2)cc1 the results were 2A firefly 7.9µM* and 2A Renilla inconclusive.
`Cc1ccc(NC(=O)Cn2c(=O)n(-c3ccccc3)c(=O)c3ccc(C(=O)NCc4ccc5c(c4)OCO5)cc32)c(C)c1` gave 2A firefly 1% and 2A Renilla 14%.
Fc1ccccc1-n1c(C23CC4CC(CC(C4)C2)C3)n[nH]c1=S was read as 2A firefly -5% and 2A Renilla 4%.
`FC(F)(F)c1cn2cc(Cl)ccc2n1` gave 2A firefly 20% and 2A Renilla 6%.
Screening COc1ccc(-c2nn(-c3ccccc3)cc2C2=NN(S(C)(=O)=O)C(c3ccccc3)C2)cc1 (centres undefined) returned 2A firefly -2% and 2A Renilla 29%.
`O=[N+]([O-])c1cc(S(=O)(=O)Nc2ccccc2)ccc1N/N=C/c1sc(Nc2ccccc2)nc1Cl` gave 2A firefly 0% and 2A Renilla 63%[activator].
CCOCCc1nnc(NC(=O)C(=O)c2cc(C)n(-c3ccc(C)c(C)c3)c2C)s1 was read as 2A firefly inconclusive and 2A Renilla inconclusive.

Copied from the entries so far (11 entries):
For CCOc1ccc(CCNC(=O)c2nnc(Cc3ccc(Cl)cc3Cl)o2)cc1OCC the results were 2A firefly -6% and 2A Renilla -10%.
CCn1c(CC(=O)Nc2ccc(F)cc2)nnc1SCC(=O)Nc1ccc2ccccc2c1 was read as 2A firefly 25% and 2A Renilla -7%.
For COc1nc2cc(C)c(C)cc2nc1C(=O)Nc1cc(C)cc(C)c1 the results were 2A firefly 7% and 2A Renilla -4%.
For Cc1c(C)c2ccc(OCC(=O)NCc3ccncc3)cc2oc1=O the results were 2A firefly 18% and 2A Renilla 13%.
For CCOc1ccc(C(=O)Nc2ccc3nc(SCC(=O)N(C)c4ccccc4)sc3c2)cc1 the results were 2A firefly 7.9µM* and 2A Renilla inconclusive.
`Cc1ccc(NC(=O)Cn2c(=O)n(-c3ccccc3)c(=O)c3ccc(C(=O)NCc4ccc5c(c4)OCO5)cc32)c(C)c1` gave 2A firefly 1% and 2A Renilla 14%.
Fc1ccccc1-n1c(C23CC4CC(CC(C4)C2)C3)n[nH]c1=S was read as 2A firefly -5% and 2A Renilla 4%.
`FC(F)(F)c1cn2cc(Cl)ccc2n1` gave 2A firefly 20% and 2A Renilla 6%.
Screening COc1ccc(-c2nn(-c3ccccc3)cc2C2=NN(S(C)(=O)=O)C(c3ccccc3)C2)cc1 (centres undefined) returned 2A firefly -2% and 2A Renilla 29%.
`O=[N+]([O-])c1cc(S(=O)(=O)Nc2ccccc2)ccc1N/N=C/c1sc(Nc2ccccc2)nc1Cl` gave 2A firefly 0% and 2A Renilla 63%[activator].
CCOCCc1nnc(NC(=O)C(=O)c2cc(C)n(-c3ccc(C)c(C)c3)c2C)s1 was read as 2A firefly inconclusive and 2A Renilla inconclusive.

(more compounds)
Screening CN(C(=O)CSc1nnc(-c2ccc([N+](=O)[O-])cc2)o1)C1CCCCC1 returned 2A firefly -12% and 2A Renilla -9%.
For COc1ccc(Cn2c(=O)c3oc4ccccc4c3n(Cc3ccc(Cl)cc3)c2=O)cc1 the results were 2A firefly 18% and 2A Renilla -24%.
`CC(C)(C)NC(=O)CSc1ncc(-c2ccc(F)cc2)o1` gave 2A firefly 125%[activator] and 2A Renilla -3%.
Screening CC(=O)c1cccc(NC(=O)Cc2nn(C)c(=O)c3ccccc23)c1 returned 2A firefly inconclusive and 2A Renilla inconclusive.
Screening Cc1ccccc1NC(=O)CSc1nnc(C)n1-n1cccc1 returned 2A firefly 19% and 2A Renilla 3%.
`CCc1ccc2nc(N(Cc3cccnc3)C(=O)Cc3ccccc3)sc2c1` gave 2A firefly -7% and 2A Renilla -1%.
`CCN1CCN(C(=O)c2ccc3nc(-c4ccccc4)c(-c4ccccc4)nc3c2)CC1` gave 2A firefly -6% and 2A Renilla 34%[activator].
`CCOC(=O)c1cc(CC)sc1NC(=O)Cn1nnc(-c2ccccc2)n1` gave 2A firefly -8% and 2A Renilla -7%.
`COc1cc(Cl)c(C)cc1NC(=O)c1cn(C2CCCC2)c(=O)c2c1c1ccccc1n2C` gave 2A firefly -19% and 2A Renilla -10%.
COc1cc(CN(C(=O)c2cccc(Cl)c2)c2ccccn2)cc(OC)c1OC was read as 2A firefly inconclusive and 2A Renilla 65%[activator].
CCOC(=O)c1c(S(=O)(=O)N2CCCC(C(=O)NCc3cccc(OC)c3)C2)c(C)n(C)c1C (centres undefined) was read as 2A firefly 0% and 2A Renilla 77%[activator].
